Sa helicase inh = blocks Staphylococcus aureus DNA helicase; purified S. aureus helicase, fluorescence unwinding assay; about half of the hits fall short of the stated cut; inhibition, %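 (tested at about 80 µM)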; 0.05% of 120,000 active;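 active = both duplicates at 50% or more, or one of them with a favoured structure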;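 also: 0% = mean of negative control wells and 100% = mean of positive control wells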
MgrA-DNA mod = modulators of Staphylococcus aureus MgrA DNA binding; fluorescence polarization; inhibition, %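 (about 10 µg/mL by stock and volumes)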; 0.13% of 84,000 active;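 active = above 50% in either of two replicates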;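 also: 0% = protein plus DNA without compound and 100% = DNA alone without protein; higher means less MgrA bound to DNA so lower polarization; one replicate is shown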
Starred values were filed as active, the others as inactive; x = not tested or not shown; & = joins results of further samples.

SMILES | Sa helicase inh | MgrA-DNA mod
c1ccc(CN2CCCN(Cc3ccccc3)C2c2cccs2)cc1 | -10.0 | 1.2
COc1cc(/C=C2\C(=O)NC(=O)N(c3ccc(Cl)cc3)C2=O)ccc1OCC(=O)O | x | 0.6
CCOC(=O)c1c(C)oc2c1c(C(c1ccc(OC)cc1)N1CCOCC1)c(O)c1ccccc12 (stereo not drawn) | 15.0 | 1.6
CC1CCCN(C(=O)c2ccc(NC(=O)C(O)(c3ccccc3)c3ccccc3)cc2)C1 (stereo not drawn) | 1.0 | x
Cc1ccsc1CN(C)CC(=O)NC1CCCC1 | -4.0 | x
Cc1cc(C)c(NS(=O)(=O)c2ccc(NC(=O)c3nc4ncccn4n3)cc2)c(C)c1 | 5.0 | x
CCOC(=O)c1nn(-c2ccc(C(C)(C)C)cc2)c(=N)c(C#N)c1C | x | 2.6
O=c1[nH]c(CSc2ccccn2)nc2ccccc12 | x | 1.3
N#CCCO/N=C/c1ccco1 | 1.0 | x
CCOC(=O)Cc1csc(NC(=O)C(C)(C)C)n1 | -5.0 | x
Cc1nnc(NC(=O)c2nc3nccc(C)n3n2)o1 | -5.0 | x
CN1/C(=C2\C=NN(C)P2(=O)N2CCCCCC2)C(C)(C)c2ccccc21 (stereo not drawn) | 1.0 | x
CC(C)(C)c1ccc(-c2nnc(-c3ccccc3NC(=O)/C=C\C(=O)O)o2)cc1 | x | 1.7
O=C(Cn1cnc2ccccc2c1=O)Nc1ccccc1C(=O)NCc1ccc2c(c1)OCO2 | -7.0 | x
CNCc1nnc(-c2ccccc2)o1 | 22.0 | x
N#CCC(=O)NNC(=S)NC1CCCCCC1 | x | 2.4
O=C(CN1CCC(N2CCCCC2)CC1)c1ccc(F)cc1 | 5.0 | -28.1
CCn1c(-c2ccc(C(C)(C)C)cc2)n[nH]c1=S | 2.0 | -0.2
O=C(OCCS(=O)(=O)c1ccc(C(F)(F)F)cn1)c1ccc(Cl)c(Cl)c1 | x | 3.7
CCOc1ccc(-c2n[nH]c(C(F)(F)F)c2Oc2ccccc2)c(O)c1C | 15.0 | x
CCOC(=O)c1sc(N)c(C(=O)OCC)c1COC(=O)c1cnc(C)cn1 | -4.0 | x
COc1ccc(CNC(=O)CCc2nnc3ccc(NCCCN4CCCC4=O)nn23)cc1 | 2.0 | x
CCn1cc(C(=O)NC(=S)Nc2sc3c(c2C(=O)OC)CCCCCC3)cn1 | 6.0 | 17.7
Cc1cc2cc(CNC(=O)C3CCCC3)ccc2[nH]1 | 7.0 | x
CC(C)(C)C(=O)NC(C(=O)O)C12CC3CC(CC(C3)C1)C2 (stereo not drawn) | -5.0 | x
COC(=O)c1ccc(NC(=O)CC2Sc3ccc(C(F)(F)F)cc3NC2=O)cc1 (stereo not drawn) | 2.0 | 1.5
COc1ccccc1OC(C)C(=O)N1CCN(C/C=C/c2ccccc2)CC1 (stereo not drawn) | 0.0 | -2.5
Cc1ccc(N/C=C2/Cn3cccc3C2=O)cc1 | -8.0 | x
O=C(CCc1cn(Cc2ccccc2)c2ccccc12)NCCc1ccc(Cl)cc1 | 12.0 | -0.4
CCCCCCCC(=O)Nc1nnc(Sc2ccnc3cc(Cl)ccc23)s1 | x | -2.4
COc1ccc(OCCOC(=O)c2ccc(SC)cc2OC)cc1 | -4.0 | x
COc1ccccc1C(=O)Nc1cc2[nH]c(=O)[nH]c2cc1C | -1.0 | x
O=C(O)c1nn(Cc2coc(-c3cccs3)n2)c(=O)c2ccccc12 | 15.0 | x
NC(=O)C1CCN(C(=O)Cn2ncc3c4ccccc4n(Cc4ccc(F)cc4)c3c2=O)CC1 | 5.0 | -1.8
O=C(COc1ccccc1)NCc1ccco1 | 13.0 | x
O=C(CCC1COc2ccccc2O1)NC1CCCCC1 (stereo not drawn) | -5.0 | 2.4
O=S(=O)(NC1CC1)c1ccc(F)cc1 | -16.0 | x
O=C(OCC(=O)N1CCCC1)c1cc(Cl)ccc1Cl | -15.0 | x
Cn1c(=NC(=O)C2=NN(C3CCS(=O)(=O)C3)C(=O)CC2)sc2ccccc21 (stereo not drawn) | -5.0 | x
COC(=O)c1ccc(OC(=O)c2ccc(Br)o2)cc1 | 2.0 | 0.8
COc1ccc2oc(=O)c(-c3nc(-c4ccc(Oc5ccccc5)cc4)cs3)cc2c1 | x | 4.2
O=C(NC1CCCCCC1)c1cccc(-n2cnnc2)c1 | 11.0 | 0.7
O=C(COc1ccc2oc3c(c2c1)CCCC3)Nc1ccccc1 | 12.0 | x
CN(C)S(=O)(=O)c1ccc(C(=O)NCc2nc3ccccc3n2C)cc1 | -15.0 | x
N#Cc1c(N2CCN(C=O)CC2)nc(N)c2c(N)nc3c(c12)CC(=O)N3Cc1cccs1 | -26.0 | x
COc1ccc(OCc2nnco2)cc1 | 10.0 | 0.3
CC(C)COc1ccc2c(c1)c1c3c([n+](C)ccn32)CCC1 | 34.0 | 8.3
N/C(=N\O)c1cnc(-c2ccncc2)nc1N | x | -3.3
COC(=O)c1cc(OC)c(OC)cc1NC(=O)C(C)C | 10.0 | x
O=C1CCC(C(=O)OCC(=O)C23CC4CC(CC(C4)C2)C3)N1 (stereo not drawn) | 17.0 | -0.6
C=CCN=c1scc(-c2ccccc2)n1/N=C/c1ccc(O)cc1O | -6.0 | x
O=c1nc(Nc2ccccc2)cn[nH]1 | 11.0 | x
NC(=O)COc1ccc(-c2noc(-c3cccs3)n2)cc1 | 3.0 | x
COC(=O)c1c(C)[nH]c(C(=O)C(C)Sc2nnc(-c3ccccc3)o2)c1C (stereo not drawn) | 5.0 | x
O=C(CSc1ncnc2ccccc12)NCc1ccccc1 | -27.0 | x
CC(C)CCOc1cccc(C2c3c(oc4ccccc4c3=O)C(=O)N2CCCN2CCOCC2)c1 (stereo not drawn) | 5.0 | x
CC(C)(C)N(Cc1ccccc1)C(=O)CSc1nncs1 | 9.0 | x
c1ccc(-c2nc(-c3cccnc3)no2)cc1 | 5.0 | 0.5
Cc1ccc(C(=O)NCCc2cn3ccccc3n2)cc1 | -17.0 | x
CNc1c(NS(=O)(=O)c2ccc(C)cc2C)c(=O)oc2ccccc12 | 11.0 | 0.3
Next records.
SMILES | Sa helicase inh | MgrA-DNA mod
NC(=O)c1ccc[n+](CC(=O)N2CCCCC2)c1 | 4.0 | -0.3
O=P(OCC1CC1)(c1ccccc1)c1ccccc1 | 3.0 | 0.0
Cc1c(CCC(=O)NN)c(C)n2c(nc3ccccc32)c1C#N | -13.0 | -0.7
CC(=C(C#N)C#N)c1ccc2c(c1)OCO2 | 5.0 | x
CCc1ccc(NC(=O)CSc2nc3ccccc3c(=O)n2CCCN2CCC(C)CC2)cc1 | 6.0 | 2.8
CN1C(=O)CS/C1=C\C(=O)C(C)(C)C | -4.0 | x
C=CCn1c(SCC(=O)c2ccccc2)nnc1-c1ccncc1 | 5.0 | x
Cc1ccc(C2N(Cc3ccccc3)CCCN2Cc2ccccc2)o1 | 12.0 | 1.9
COc1ccc(CCNc2ncc3c(n2)CC(c2ccc(C)cc2)CC3=O)cc1 (stereo not drawn) | 13.0 | x
CCCC1Cc2[nH]c(=O)c(C(=O)O)cc2CO1 (stereo not drawn) | 15.0 | 3.5
COC(=O)c1cc(OC)c(OC)cc1NC(=O)CSc1nnnn1-c1ccccc1OC | -13.0 | 0.1
O=C(O)CCc1cnn(-c2ccccc2)c1 | 3.0 | x
O=C(OC(c1ccccc1)c1nccc2ccccc12)c1ccco1 (stereo not drawn) | 11.0 | x
Cc1ccc2c(Cn3nnc4ccccc4c3=O)cc(=O)oc2c1 | -6.0 | x
O=C(Nc1cccc2c1CCCC2)N1CCC(CN2CCCCC2)CC1 | 4.0 | x
CCN(CC)S(=O)(=O)c1ccc(C(=O)Nc2cccc3c2C(=O)c2ccccc2C3=O)cc1 | x | -0.7
CC1(C)CC(=O)C2=C(C1)Nc1[nH]c(=S)[nH]c(=O)c1C2c1ccc(O)cc1 (stereo not drawn) | -22.0 | x
CC(C)(C)c1nnc(NC(=O)Nc2ccc(OC(F)(F)F)cc2)s1 | x | -1.5
COc1ccccc1OC(=O)C1CCCCC1 | 20.0 | 0.6
Cc1ccc(CN2CC(C(=O)NCC(=O)OCc3ccccc3)CC2=O)cc1 (stereo not drawn) | -1.0 | x
CCN(CC)C(=O)c1ccccc1OC | -14.0 | 1.8
CCCSc1sc(C(=O)OC)c2c1C(=O)CC(C)(C)C2 | x | 0.0
COc1ccc(N=Cc2c(O)[nH]c(=S)[nH]c2=O)cc1 | -21.0 | 7.9
N#CCCSc1nc2ccccc2n1CCc1ccccc1 | -17.0 | x
CC(=O)N1CCN(S(=O)(=O)c2ccc(C)cc2)C1c1ccc(N(C)C)cc1 (stereo not drawn) | -5.0 | 0.8
Cc1cc(OCCN2CCCC2)cc(C)c1Cl | -4.0 | x
COc1cc2c(c(OC)c1OC)Cc1cc(OC)c(OC)c(OC)c1C2 | x | 2.1
Nc1cc(Cl)ccc1Sc1ccccc1 | 23.0 | 2.1
CCOC(=O)c1c(-c2cccs2)csc1NC(=O)C(F)(F)F | 8.0 | -7.2
Cc1cc2cc(CNC(=O)COc3ccccc3)ccc2n1C | 16.0 | x
CCOC(=O)c1cc2c(N(C)C)nccc2nc1C(F)(F)F | 22.0 | x
Cc1ccc(CCCOC(=O)CN2CCOCC2)cc1 | -19.0 | -0.2
CCCCc1ccc(N2C(=O)C=CC2=O)cc1 | 17.0 | 12.4
C(=NCCc1ccccc1)c1ccccc1 | x | -0.9
CCCCn1nc(C)c(/C=N/NC(=O)CN2CCCc3ccccc32)c1Cl | 15.0 | x
CCOc1ccc(NC(=O)c2cn(CC(C)C)c(=O)c3c2c2ccccc2n3C)cc1 | 10.0 | 1.1

A different layout for part of the listing above:
SMILES: Nc1cc(Cl)ccc1Sc1ccccc1
  Sa helicase inh = 23.0
  MgrA-DNA mod = 2.1

SMILES: CCCCc1ccc(N2C(=O)C=CC2=O)cc1
  Sa helicase inh = 17.0
  MgrA-DNA mod = 12.4

New compounds follow
SMILES | Sa helicase inh | MgrA-DNA mod
Cc1ccc(-n2nc3c(c2NC(=O)C(C)(C)C)CSC3)cc1 | -17.0 | x
Cc1[nH]c(=S)c(C#N)c(-c2ccco2)c1C(=O)O | -4.0 | x
O=C(O)/C=C/C(=O)NCc1ccccc1 | -3.0 | -2.1
Cc1onc(-c2ccccc2Cl)c1C(=O)NCCOC12CC3CC(CC(C3)C1)C2 | 15.0 | -2.4
O=C(/C=[N+](\[O-])C1CCC/C1=N\O)c1ccccc1 (stereo not drawn) | -16.0 | x
COC(=O)c1c(C(=O)OC)c2ccncn2c1Cl | 13.0 | -1.5
COC(=O)c1ccc(COC(=O)c2ccc3c(c2)OCO3)o1 | -1.0 | x
COc1ccc(OCCN(C)C(=O)/C=C/c2nc3ccccc3o2)cc1 | -13.0 | x
CCCN(CCC)C1=C(C(=O)c2ccccc2)N(C)S(=O)(=O)c2ccccc21 | 1.0 | 1.2
C[C@@]12CCC3[C@@](CC[C@@H]4[C@](C)(C(=O)O)CCC[C@@]34C)(C[C@H]1O)C2 (stereo partly drawn) | 10.0 | x
O=C(O)c1cccnc1N1CCOCC1 | 12.0 | -2.0
CSc1nc2ccccc2[nH]1 | x | -2.3&0.7

Rewritten as labelled records: part of the list above
COC(=O)c1ccc(COC(=O)c2ccc3c(c2)OCO3)o1
  Sa helicase inh: -1.0	MgrA-DNA mod: x

COc1ccc(OCCN(C)C(=O)/C=C/c2nc3ccccc3o2)cc1
  Sa helicase inh: -13.0	MgrA-DNA mod: x

CCCN(CCC)C1=C(C(=O)c2ccccc2)N(C)S(=O)(=O)c2ccccc21
  Sa helicase inh: 1.0	MgrA-DNA mod: 1.2

C[C@@]12CCC3[C@@](CC[C@@H]4[C@](C)(C(=O)O)CCC[C@@]34C)(C[C@H]1O)C2 (stereo partly drawn)
  Sa helicase inh: 10.0	MgrA-DNA mod: x

Profiles, quoted from the list.
Cc1c(CCC(=O)NN)c(C)n2c(nc3ccccc32)c1C#N reads Sa helicase inh: -13.0; MgrA-DNA mod: -0.7
COc1ccccc1OC(=O)C1CCCCC1 reads Sa helicase inh: 20.0; MgrA-DNA mod: 0.6

The list goes on:
SMILES | Sa helicase inh | MgrA-DNA mod
CCOC(=O)C(C)Sc1nc2c([nH]c3ccccc32)c(=O)n1-c1ccc(F)cc1 (stereo not drawn) | -16.0 | x
C=C(C)c1cccc(C(C)(C)NC(=O)NC2CC2)c1 | 13.0 | x
COc1ccc(-c2noc(COc3cc(C)c(Cl)c(C)c3)n2)cc1OC | 14.0 | 0.0
CCOc1nc(C)nc2c1sc(=S)n2C | 3.0 | -1.0
O=S(=O)(/N=C(/Nc1cccc(O)c1)c1ccccc1)c1ccccc1 | 6.0 | x
CCOc1ccc(/C=N/NC(=O)N/N=C/c2ccc(OCC)c(OC)c2)cc1OC | x | 2.7
COC(=O)/C(C#N)=C/c1ccc(OC)c(OC)c1Cl | x | -2.5
CC(C)(C)Sc1cc(C(=O)O)sc1C(=O)O | 6.0 | -6.7
CCc1ccc(NC(=O)Cn2ncc3ccccc32)cc1 | 15.0 | -1.8
O=C(CSc1nc2ccccc2[nH]1)c1cccs1 | 23.0 | x
COc1ccc(CCN2C(=O)c3ccccc3NC2c2c(C)nn(C)c2C)cc1 (stereo not drawn) | 0.0 | x
NCCCOCC1CCCO1 (stereo not drawn) | 21.0 | x
CCC(C)NC(=O)/C=C1\Sc2ccccc2NC1=O (stereo not drawn) | 9.0 | 0.4
CCCCCC(=O)NC1(CCC)CCCC1 | 3.0 | 4.8
N#C/C(=C\c1ccc(N2CCCC2)o1)c1ccccc1 | -134.0 | 0.6
COC(=O)Nc1ccc(SCC(=O)N(c2ccccc2)C(C)C)cc1 | 4.0 | x
Cc1nn(-c2ccccc2)c2[nH]c(=O)c(CNc3ccccc3)cc12 | -1.0 | -2.7
O=C(CSCc1cc(=O)n2c3c(sc2n1)CCCC3)NCc1ccc2c(c1)OCO2 | 8.0 | x
Cc1ccc(N=Cc2c(O)c3ccccc3n(C)c2=O)cc1 | 4.0 | x

From PubChem BioAssay

The list is partial; rates above refer to the full screens.
